# GIV Gai3 FP: inhibitors of GIV GBA-motif binding to rat Galpha-i3. 210,000 tested, 0.42% active. Galpha-i3/FITC-GIV peptide fluorescence polarization, 90 min; active compounds read low; scaled: aluminum fluoride 0%, vehicle 100%. AID 1224905. percent of control (FP), % (concentration not given with the values);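 active = replicate mean at 85% of control or lower, very high polarization wells dropped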;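 also: wells of about 15 µL received 100 nL stock; the first replicate is given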
# Target sequence (P08753 whole entry, looked up): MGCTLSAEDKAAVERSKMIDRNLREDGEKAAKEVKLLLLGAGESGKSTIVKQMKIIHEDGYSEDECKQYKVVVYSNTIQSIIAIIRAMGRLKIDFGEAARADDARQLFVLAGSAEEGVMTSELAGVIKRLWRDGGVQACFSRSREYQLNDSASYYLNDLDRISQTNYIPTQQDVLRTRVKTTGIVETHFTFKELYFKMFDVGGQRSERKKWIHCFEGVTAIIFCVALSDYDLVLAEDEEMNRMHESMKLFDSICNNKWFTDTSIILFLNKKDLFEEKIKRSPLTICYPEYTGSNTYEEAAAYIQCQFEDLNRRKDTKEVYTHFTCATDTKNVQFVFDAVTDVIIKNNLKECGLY
# Sa growth 42C: S. aureus growth inhibition; S. aureus RN4220 growth, OD600, 20 h, 42 °C; active compounds read low; relative growth, % (no concentration beside the values); 170,000 tested, 0.53% active; AID 720641;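 active = growth at 42 °C up to 50% and 20 or more points under that at 30 °C, or under 10% at both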;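 also: 300 nL library stock went into each well; scaled to the means of positive and negative controls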
# HCMV UL50-53 inh: inhibitors of HCMV UL50-UL53 nuclear egress complex interaction; HTRF UL50-UL53 interaction, normalized percent inhibition; inhibition, % (concentration not given with the values); 190,000 tested, 0.15% active; AID 1918969;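 active = both replicates at 50% or more, plus weaker picks with an unusually low signal ratio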;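 also: stock transfer was 100 nL into about 20 µL; 0% = negative control wells and 100% = wells with untagged competitor protein; inactives centre near -12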
# Sa growth 42C second temp: recorded beside Sa growth 42C, whose call it bears; relative growth, %; measured here: growth at 30 °C;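 optical density after 20 h as mean of two plates; 100% = untreated growth and lower means inhibition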
# An asterisk follows results filed as active; · = not tested or not shown; & = joins results of further samples.
# Values run as follows: GIV Gai3 FP, Sa growth 42C, Sa growth 42C second temp, HCMV UL50-53 inh
1. COc1ccc(Nc2nc3nonc3nc2Nc2c(C)n(C)n(-c3ccccc3)c2=O)cc1
 : 101, ·, ·, -14
2. CCC(C)NC(=O)CSc1nc(-c2ccc(F)cc2)cc(C(F)(F)F)n1 (stereo not drawn)
 : 104, 101, 95, -11
3. CSc1cccc(NC(=O)CC(C)S(=O)(=O)c2ccc3c(c2)OCC(=O)N3)c1 (stereo not drawn)
 : 102, 96, 91, ·
4. CCOC(=O)CSc1nnc(Nc2ccccc2C)s1
 : ·, 89, 96, 15
5. CC(Sc1nnc(-c2ccncc2)o1)C(=O)N1CCc2ccccc21 (stereo not drawn)
 : 106, ·, ·, -2
6. O=C(CSc1nnc(-c2cccnc2)o1)N(C1CCCCC1)C1CCCCC1
 : 105, 119, 89, -12
7. COc1ccc(CNC(=O)CCCN2C(=O)c3cccnc3Oc3ccc(Cl)cc32)cc1
 : 108&104, 121, 83, 2
8. COC(=O)c1ccccc1NC(=O)c1cc(-c2ccccc2O)no1
 : 115, 88, 84, ·
9. Cc1cccc(Cn2c(SCc3ccc(C(=O)NCc4cccs4)cc3)nc3cccnc32)c1
 : 100, 137, 99, ·
10. COc1ccc(C(=O)CSc2nnc(-c3ccco3)c(-c3ccco3)n2)cc1
 : 111, 60, 44, ·
11. CCOC(=O)c1ccc(OCC2c3cc(OC)c(OC)cc3CCN2C(=O)Cc2ccc(F)cc2)cc1 (stereo not drawn)
 : 104, 120, 89, ·
12. COc1ccccc1Nc1c2c(nc3ccc(NC(=O)CCN4CCOCC4)cc13)CCCC2
 : 100, 99, 75, ·
13. O=C1NN=C(c2ccccc2)Cn2c1cc1ccccc12
 : 106, 102, 94, 3
14. O=C(NCc1ccco1)c1n[nH]c(=O)c2ccccc12
 : 101, 99, 90, 6
15. Cc1ccc2c(c1)c1c(c(=O)n(-c3ccccc3)c(=O)n1CC(=O)N1CCCC1)n2C
 : 103, 98, 91, ·
16. O=C(Nc1ccccc1Cl)N1CCN(C/C=C/c2ccccc2)CC1
 : 99, 88, 90, -15
17. Cc1ccc(C=Nc2ccccc2C(N)=O)o1
 : 100, 75, 45, -29
18. Cc1ccc2onc(CC(=O)NCc3cccc(Cl)c3)c2c1
 : 99, 99, 77, ·
19. Nn1c(COc2ccccc2)n[nH]c1=S
 : ·, 67, 75, -32
20. Cc1nc2cc(-c3ccccc3)nn2c(C)c1CCC(=O)NCc1ccco1
 : 102, 98, 90, -5
21. COc1ccc(OC)c(CNC(=O)c2cccc(NC(=O)N3CCSc4ncccc43)c2)c1
 : 107, 91, 92, ·
22. Cc1noc2ncn(CC(=O)NC(C)C)c(=O)c12
 : 105&105, 98, 106, 19&-1
23. CC(C)(C)c1cc(C(=O)NCCCn2ccnc2)cc(C(C)(C)C)c1
 : 102, 109, 75, ·
24. O=S1(=O)CCC2CC=CCC21 (stereo not drawn)
 : 105, 110, 111, -4
25. Cc1ccccc1Nc1nc(Nc2ccccc2)c2cnn(C)c2n1
 : 106, ·, ·, -7
26. Nc1ncc(S(=O)(=O)Nc2ccc(OC(F)(F)F)cc2)cn1
 : 111, 104, 84, ·
27. NS(=O)(=O)c1ccc(CCNC(=O)C2=NS(=O)(=O)c3ccccc3N2)cc1
 : 96, ·, ·, -22
28. COc1ccc2[nH]c(C(=O)NCc3cccc(C)c3)c(NC(=O)c3ccccc3)c2c1
 : 106, ·, ·, -28
29. Cc1cc(NCC(C)C)n2ncc(-c3ccc(F)cc3)c2n1
 : 98, ·, ·, 2
30. COc1cc(NC(=O)c2cc(-c3ccccc3O)no2)cc(OC)c1OC
 : 110, 107, 82, ·

# A draw from above in order of count of non-hydrogen atoms, descending:
# Values run as follows: GIV Gai3 FP, Sa growth 42C, Sa growth 42C second temp, HCMV UL50-53 inh
11. CCOC(=O)c1ccc(OCC2c3cc(OC)c(OC)cc3CCN2C(=O)Cc2ccc(F)cc2)cc1 (stereo not drawn)
 : 104, 120, 89, ·
9. Cc1cccc(Cn2c(SCc3ccc(C(=O)NCc4cccs4)cc3)nc3cccnc32)c1
 : 100, 137, 99, ·
1. COc1ccc(Nc2nc3nonc3nc2Nc2c(C)n(C)n(-c3ccccc3)c2=O)cc1
 : 101, ·, ·, -14
7. COc1ccc(CNC(=O)CCCN2C(=O)c3cccnc3Oc3ccc(Cl)cc32)cc1
 : 108&104, 121, 83, 2
15. Cc1ccc2c(c1)c1c(c(=O)n(-c3ccccc3)c(=O)n1CC(=O)N1CCCC1)n2C
 : 103, 98, 91, ·
20. Cc1nc2cc(-c3ccccc3)nn2c(C)c1CCC(=O)NCc1ccco1
 : 102, 98, 90, -5
27. NS(=O)(=O)c1ccc(CCNC(=O)C2=NS(=O)(=O)c3ccccc3N2)cc1
 : 96, ·, ·, -22
2. CCC(C)NC(=O)CSc1nc(-c2ccc(F)cc2)cc(C(F)(F)F)n1 (stereo not drawn)
 : 104, 101, 95, -11
8. COC(=O)c1ccccc1NC(=O)c1cc(-c2ccccc2O)no1
 : 115, 88, 84, ·
29. Cc1cc(NCC(C)C)n2ncc(-c3ccc(F)cc3)c2n1
 : 98, ·, ·, 2
13. O=C1NN=C(c2ccccc2)Cn2c1cc1ccccc12
 : 106, 102, 94, 3
14. O=C(NCc1ccco1)c1n[nH]c(=O)c2ccccc12
 : 101, 99, 90, 6
22. Cc1noc2ncn(CC(=O)NC(C)C)c(=O)c12
 : 105&105, 98, 106, 19&-1
17. Cc1ccc(C=Nc2ccccc2C(N)=O)o1
 : 100, 75, 45, -29
19. Nn1c(COc2ccccc2)n[nH]c1=S
 : ·, 67, 75, -32
24. O=S1(=O)CCC2CC=CCC21 (stereo not drawn)
 : 105, 110, 111, -4

# (next part)
# Values run as follows: GIV Gai3 FP, Sa growth 42C, Sa growth 42C second temp, HCMV UL50-53 inh
31. O=C(CSCc1ccccc1Cl)NC1CC1
 : 95, 98, 94, -3
32. COCCOC(=O)c1c(C)oc2ccc(NS(=O)(=O)c3ccc(Cl)c([N+](=O)[O-])c3)cc12
 : 107, ·, ·, -22
33. Cc1ccc(S(=O)(=O)Nc2ccc3c(c2)CCCN3C(=O)c2cccs2)cc1
 : 99, 74, 69, ·
34. CCN(CC)c1ccc(NC(=O)Nc2ccc(Cl)cc2)cc1
 : 98, 146, 92, 19
35. Cc1ccc(-n2ncc(C(=O)NCCN3CCc4ccccc4C3)c2C2CCN(C(=O)OC(C)(C)C)CC2)cc1
 : 111, 146, 74, ·
36. COc1ccc(N(CC(=O)NC(C)c2ccccc2)S(=O)(=O)c2c(C)noc2C)cc1 (stereo not drawn)
 : 105, 86, 86, -30
37. Cc1noc(C)c1C(=O)N(C)C1CCCc2ccccc21 (stereo not drawn)
 : ·, 86, 90, -12
38. CCCSc1ncc(Cl)c(C(=O)NCc2ccc(OC)cc2)n1
 : 103, 103, 98, 0
39. Cc1cnc(C(=O)Nc2ccccc2F)cn1
 : ·, 112, 80, -22
40. O=c1c2cc(N3CCOCC3)ccc2[nH]c(=S)n1CCc1ccccc1
 : 96, 96, 83, ·
41. O=S(=O)(c1ccc(F)cc1)N1CCN(c2nc3ccccc3n3cccc23)CC1
 : 104, ·, ·, -30
42. CCc1c(O)nc(SC(C)C(=O)Nc2ccc(S(N)(=O)=O)cc2)n(-c2ccccc2)c1=O (stereo not drawn)
 : 104, 109, 98, -6
43. O=C(CC(Sc1ccc(C(F)(F)F)cn1)C(=O)O)c1ccc(Br)cc1 (stereo not drawn)
 : 101, 87, 80, -18
44. CCOC(=O)c1c(C)oc2c1c(CN1CCN(c3ccccc3)CC1)c(O)c1ccccc12
 : ·, 135, 88, -14
45. O=C1CN(C(=O)c2ccc(S(=O)(=O)N3CCCC3)cc2)C(c2ccccc2)c2cc(F)ccc2N1 (stereo not drawn)
 : 102, 111, 98, -12
46. Cc1nc(Nc2ccc(NC(=O)C3CCCC3)cc2)cc(N2CCCC2)n1
 : 102, ·, ·, 7
47. CCc1ccc(CN(Cc2ccco2)c2cnc(S(C)(=O)=O)nc2C(=O)Nc2cccc(C)c2)cc1
 : 98, 99, 95, 0
48. Cc1nn(-c2ccccc2)c(Cl)c1C1C(C#N)=C(N)OC2=C1C(=O)CCC2 (stereo not drawn)
 : 102, 89, 74, -16
49. Cc1cccc(-c2nc3c4c(C)c(C)n(Cc5ccccc5)c4ncn3n2)c1
 : 105, ·, ·, -25
50. COC(=O)Cn1cnc2c1c(=O)n(C)c(=O)n2C
 : 98&103, 90, 90, 12&4
51. O=C(CSc1ncnc2[nH]ncc12)c1ccccc1
 : ·, 119, 88, -20
52. COC(=O)C1=C(C(=O)c2ccccc2)C(c2ccc(OC)c(OC)c2)Nc2nnnn21 (stereo not drawn)
 : 102, 93, 86, -16
53. NC(=O)CCC1COc2ccccc2O1 (stereo not drawn)
 : 105&102, 103, 89, -6&-15
54. O=C(Oc1cccc2cccnc12)c1cccc(F)c1
 : 97, 1.6*, 0.7*, -23
55. CCc1nnc(NC2=NS(=O)(=O)C(c3cccc(Br)c3)=C2C)s1
 : 106, 80, 69, -26
56. COc1ccc(CNC(=O)C2CCCN(S(=O)(=O)c3cc(-c4noc(C)n4)ccc3Cl)C2)cc1 (stereo not drawn)
 : 98, ·, ·, -22
57. Cc1c(/C=N/NC(=O)c2cc(Br)ccc2O)c(=O)n(C)c(=O)n1C
 : ·, 73, 89, -21
58. COC(=O)C1(CCSC)NC(c2ccc(N(C)C)cc2)C2C(=O)N(C)C(=O)C21 (stereo not drawn)
 : 104, 119, 92, -1
59. CC1=C(C(=O)N2CCN(c3cccc(C)c3C)CC2)C2(CCCCC2)OC1=O
 : 100, 106, 97, 2
60. Cc1cc(C)c2oc(C(=O)Nc3ccc(S(=O)(=O)Nc4nccc(C)n4)cc3)cc(=O)c2c1
 : 99, 99, 83, -36

# From entry 59 up to 60, as listed above:
# Values run as follows: GIV Gai3 FP, Sa growth 42C, Sa growth 42C second temp, HCMV UL50-53 inh
59. CC1=C(C(=O)N2CCN(c3cccc(C)c3C)CC2)C2(CCCCC2)OC1=O
 : 100, 106, 97, 2
60. Cc1cc(C)c2oc(C(=O)Nc3ccc(S(=O)(=O)Nc4nccc(C)n4)cc3)cc(=O)c2c1
 : 99, 99, 83, -36

# Continued.
# Values run as follows: GIV Gai3 FP, Sa growth 42C, Sa growth 42C second temp, HCMV UL50-53 inh
61. O=C(O)CCCNc1ncnc2ccccc12
 : 96, 94, 83, -1
62. COc1ccc(-n2nnc(-c3nsc(NC(=O)c4cccs4)n3)c2C)cc1OC
 : 104, 115, 88, ·
63. O=S1(=O)CCC(N=Cc2ccc(-c3cccc(C(F)(F)F)c3)o2)C1 (stereo not drawn)
 : ·, 107, 83, -32
64. N#CCS(=O)(=O)Cc1c(F)cccc1Cl
 : 100, 102, 50, 5
65. Oc1ccccc1CNc1ccc(F)c(Cl)c1
 : ·, 87, 102, -37
66. C/C(CC1(O)/C(=N/O)CCc2nonc21)=N\O (stereo not drawn)
 : 103, 63, 89, -10
67. CC1CCCCC1NC(=O)CCn1nc(-c2ccccc2)ccc1=O (stereo not drawn)
 : 102, 104, 87, ·
68. CS(=O)(=O)Nc1cc(C(=O)N2CCN(c3ccccn3)CC2)ccc1N1CCNCC1
 : 102, ·, ·, -9
69. CCc1ccc2c(c1)NC(c1ccc(C)cc1)=NC(c1cccs1)=N2
 : 101, 93, 87, -25
70. CC(=O)Nc1cccc2ncccc12
 : ·, 88, 114, -6
71. Cc1ccccc1CNC(=O)CCCn1nc(C)c2sc3ccccc3c2c1=O
 : 109, 107, 80, -8
72. COc1ccc(CNC(=O)Cn2ncc3c(=O)oc4ccc(C)cc4c32)c(OC)c1
 : 107, 93, 103, -9
73. Clc1cccc(Cl)c1Cn1nnc(N2CCCC2)n1
 : 100, 88, 91, -27
74. CCC(Sc1nc2cc(OC)c(OC)cc2c(=O)n1Cc1ccco1)C(=O)Nc1ccccc1OC (stereo not drawn)
 : 95, 89, 90, -18
75. CCOc1ccc(-n2c(CSc3nc4ccccc4o3)nc3ccccc3c2=O)cc1
 : ·, 95, 93, -27
76. CCCCc1oc2ccccc2c1C(=O)c1ccc(O)cc1
 : 99, 32, 17, ·
77. O=C(C1CCN(S(=O)(=O)c2ccccc2)CC1)N1CCCC1
 : ·, 100, 87, -9
78. Cn1c(=O)c(-c2noc(CCC(=O)Nc3ccc(F)cc3F)n2)nn(-c2ccccc2)c1=O
 : 105, ·, ·, -74
79. O=C(c1cc2ccccc2oc1=O)N(c1ccccn1)C1CCCCC1
 : ·, 109, 101, 6
80. CC(C(=O)NC1CCCCCC1)n1c2ccccc2c2cnn(C)c(=O)c21 (stereo not drawn)
 : 108, 105, 95, 10
81. COc1ccc(NC(=O)CCCc2nc(-c3cc4ccc(C)cc4[nH]c3=O)no2)cc1
 : 111, ·, ·, -35
82. CC(=O)O/N=C1\Sc2ccccc2C1=O
 : 68*, 74, 42, 19
83. N#Cc1ccsc1NC(=O)COC(=O)c1cc(-c2ccccc2)nn1-c1ccccc1
 : ·, 114, 87, -2
84. O=C1N/C(=N\c2ccccn2)SC1Cc1cccc(C(F)(F)F)c1 (stereo not drawn)
 : 101, ·, ·, -27
85. CCOc1ccc(S(=O)(=O)NC(C)C(=O)NC2CCCC2)cc1 (stereo not drawn)
 : 102, 105, 93, -36
86. Cc1ccc2c(c1)sc1nc(C)c(S(=O)(=O)Nc3ccc(F)c(F)c3)c(=O)n12
 : 105, ·, ·, -26
87. CCc1nc(-c2cc(S(=O)(=O)N3CCCC(C(=O)Nc4ccc(C)cc4)C3)c(C)s2)no1 (stereo not drawn)
 : 103, ·, ·, -10
88. Cc1ccc(-c2c[n+](=O)c3c(n2[O-])CCC3)cc1
 : 105, 77, 87, ·

# An unsorted share of the library. About 0.82% of those tested had a hit in this group.
